NPYLR7 ag – agonists of mosquito NPYLR7 receptor, primary screen, cell-based, Aedes aegypti, calcium fluorescence, mosquito biting behavior; Aedes aegypti neuropeptide Y-like receptor 7 (NPYLR7); HEK293T NPYLR7/Galpha15, GCaMP6s calcium fluorescence; activation, % at 10 µM; 0.15% of 270,000 active; in the data active = activation above about 40%;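 also: 0% = vehicle and 100% = reference agonist at the receptor; some compounds past the cut are filed as inactive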
NPYLR7 ag max-min – second read-out of NPYLR7 ag, no call of its own (marks repeat the call); activation, %; measured here: Max-Min RFU normalised activation; some inactives read as strong as hits;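 span of the calcium signal over five minutes; 0% = vehicle and 100% = native peptide agonist; compound fluorescence can raise it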
Active calls of the source: *; & = joins results of further samples. Not all compounds are listed, so the mix of outcomes need not match the whole.

Below each compound – NPYLR7 ag, NPYLR7 ag max-min
- O=C(c1ccc(Cl)cc1)N1CCSC12CCNCC2
    13, 17
- COc1ccccc1[C@H]1CN(C(=O)c2cc(C)c[nH]2)[C@@H]2C3CCN(CC3)[C@H]12
    9, 8
- c1ccn2c3c(nc2c1)CCNC31CCCCC1
    6, 1
- O=[N+]([O-])c1cc(CN2CCN(CCOC(c3ccccc3)c3ccccc3)CC2)cs1
    3, -1
- Cc1ccc(-n2cc(C3=CCN(CCNC(N)=O)CC3)cn2)c(C)c1
    2, 7
- CN(C)c1ccc(C=C2C(=O)NC(=S)NC2=O)cc1[N+](=O)[O-]
    15, 13
- Brc1cc(CN2CCC3(C2)OCCO3)c2ncccc2c1
    1, 7
- CC(C)(C)c1ccc(S(=O)(=O)N(CCS(=O)(=O)F)CCS(=O)(=O)F)cc1
    -5, -11
- CC1N(Cc2ccccc2)CC12CCCCC2 (stereo not given)
    -10, -7
- COc1ccc(OC)c(NC(=O)c2cccn(Cc3cccc(C)c3)c2=O)c1
    13, 3
- CCOC(=O)C1C(=N)Oc2c(c(=O)oc3ccccc23)C1c1cccc(Cl)c1 (stereo not given)
    -1, -5
- O=C1OC2(CCN(Cc3cc4n(n3)CCCNC4)CC2)c2ccccc21
    17, 13
- Cc1cc(C(=O)NCc2ccc(F)cc2)c(C)n1C1CC1
    -1, -3
- c1ccc(CCCN2CCN(CCOC(c3ccccc3)c3ccccc3)CC2)cc1
    -5, 5
- Nc1nc(N2CCNCC2)cc(=O)[nH]1
    -10, -13
- OCC1N(Cc2ccccn2)C2CCC1(O)CC2 (stereo not given)
    -5, 0
- CCC1(C(=O)c2ccc(C)cc2)C2c3cc(Br)ccc3OC(=O)C21C(=O)OC (stereo not given)
    -7, -9
- O=C(Nc1ccccc1C(F)(F)F)c1cccn(Cc2ccc(C(F)(F)F)cc2)c1=O
    10, 9
- CC(C)SCC(=O)N1CCN2CCN(C)CC2C1 (stereo not given)
    -1, -2
- NCCc1c[nH]c2ccc(O)cc12
    -6&1, -11&-37
- COCCNC(=O)c1nn(Cc2ccc(OCc3ccccc3)cc2)c2ccc(OC)cc12
    12, 11
- Brc1ccc2[nH]cc(CNCCN3CCOCC3)c2c1
    3, 4
- COc1ccc(C)cc1CCNC1CCC(C)CC1 (stereo not given)
    2, -1
- CC(C)NC(=O)c1cn(Cc2ccccc2)cc(C(=O)N2CCCC(c3ccccc3)CC2)c1=O (stereo not given)
    10, 3
- Cc1noc(C)c1CCC(=O)N1CCN2CCN(C)C(=O)C2C1 (stereo not given)
    0, -2
- CC(C)(C)c1o[nH]c(=O)c1CC(N)C(=O)O (stereo not given)
    6, -3
- CCOC1Oc2ccc(OS(C)(=O)=O)cc2C1(C)C (stereo not given)
    2, 1
- CCC(C)(C)C(=O)NC1CCSC1=O (stereo not given)
    1, 7
- Clc1ccc(C2NCCc3[nH]cnc32)c(Cl)c1 (stereo not given)
    1, -2
- CC1=C2C[C@H]3[C@@H](CC=C4C[C@@H](O)CC[C@@]43C)[C@@H]2CC[C@]12O[C@@H]1C[C@H](C)CN[C@H]1[C@H]2C
    4, -2

No new results follow: an excerpt of the list.
Below each compound – NPYLR7 ag, NPYLR7 ag max-min
- CCOC1Oc2ccc(OS(C)(=O)=O)cc2C1(C)C (stereo not given)
    2, 1
- CCC(C)(C)C(=O)NC1CCSC1=O (stereo not given)
    1, 7
- Clc1ccc(C2NCCc3[nH]cnc32)c(Cl)c1 (stereo not given)
    1, -2
- CC1=C2C[C@H]3[C@@H](CC=C4C[C@@H](O)CC[C@@]43C)[C@@H]2CC[C@]12O[C@@H]1C[C@H](C)CN[C@H]1[C@H]2C
    4, -2

New compounds follow.
Below each compound – NPYLR7 ag, NPYLR7 ag max-min
- NCCc1nc(N)n[nH]1
    -15, -24
- CCCn1ccnc1CN1CCN(C(C)C)C(C)C1 (stereo not given)
    2, 2
- COc1ccc(NC(=O)C(C2CCCC2)N2CCN(C(=O)COc3ccc(Cl)cc3)CC2)cc1OC (stereo not given)
    -2, 4
- CN(C)CC1(O)C2CN3CCN(C2)CC1(c1ccccc1)C3 (stereo not given)
    -3, -3
- Cc1cccc2[nH]cc(C3=CCN(C(C)C(=O)N4CCOCC4)CC3)c12 (stereo not given)
    1, 10
- CN(C)C(=O)Oc1cc(OC(=O)N(C)C)cc(C(O)CNC(C)(C)C)c1 (stereo not given)
    6&-4&1, -1&-12&-5
- C[C@@]12CO[C@H](c3ccccc3)C[C@@H]1C[C@H](N1CCN(C(=O)COc3ccccc3)CC1)C2
    -3, -2
- O=C(NCc1cccc(F)c1)C(C1CCCC1)N1CCN(C(=O)Cc2cccs2)CC1 (stereo not given)
    -2, 6
- Nc1c([N+](=O)[O-])cc(C(F)(F)F)cc1[N+](=O)[O-]
    4, 10
- COC(=O)C1=CCCN(C)C1
    -8&-4&0&8&6, -13&-7&-4&8&-17
- Cc1cc(NC(=O)CN2[C@@H]3CC[C@H]2CC(O)C3)ccc1Cl (stereo not given in full)
    1, -3
- CCOc1ccccc1NC(=O)N1CCN(CCOC(c2ccccc2)c2ccc(F)c(F)c2)CC1 (stereo not given)
    24, 18
- O=C(COc1cccnc1)N1CCN(C2Cc3ccccc3C2)CC1
    6, 0
- COc1c(C)cc(C(=O)C2CCCNC2)cc1C (stereo not given)
    -2, -4
- COCc1ncc(CN2C[C@@H]3[C@@H]4CC[C@@H](C4)[C@@H]3C2)cn1
    -1, -3
- COc1ccc2c3c([nH]c2c1)C(C)=NCC3
    0, 1
- Cc1ccc(-c2cc(CN3CCC4(C3)CN(C)C(=O)O4)on2)cc1 (stereo not given)
    -5, -15
- COc1ccc2cc(C3SCC(=O)Nc4n[nH]c(C)c43)c(=O)n(C)c2c1 (stereo not given)
    -2, -6
- C=CCOC(=O)C1=C(C)OC(=N)C(C(=O)OC(C)C)C12C(=O)Nc1ccccc12 (stereo not given)
    -3, -2
- S=P(NN=Cc1ccc(N2CCOCC2)s1)(c1ccccc1)c1ccccc1
    6, 3
- Cc1cc(C)cc(NC(=O)c2cnn(C(C)(C)C)c2C)c1
    2&9, 1&5
- O=C(NC1(C(Cl)(Cl)Cl)OCCO1)C(Cl)(Cl)Cl
    1, 2
- O=C(COc1ccc(F)cc1)N1CCN(Cc2cccc(-c3noc(-c4cccnc4)n3)c2)CC1
    3, 0
- NP(=O)(Oc1ccccc1Cl)Oc1ccccc1Cl
    -4, -5
- O=C1OCC2(c3ccccn3)CC12 (stereo not given)
    7, 8
- Cc1ccc(Sc2ccc(C=C3C(=O)NC(=O)NC3=O)o2)cc1
    3, 2
- CC[C@@]1(O)C[C@H](O[C@H]2C[C@H](N(C)C)[C@H](O)[C@H](C)O2)c2c(cc3c(c2O)C(=O)c2c(O)ccc(O)c2C3=O)[C@H]1C(=O)OC
    9, -2
- CC(Cc1cccs1)NCCC(=O)N1CCCc2ccccc21 (stereo not given)
    23, 8
- CN1CCC2=C[C@H](O)[C@H]3OC(=O)c4cc5c(cc4[C@H]3[C@@H]21)OCO5
    -2, -6
- NC1CC1c1ccccc1 (stereo not given)
    4, -16

New compounds follow
Below each compound – NPYLR7 ag, NPYLR7 ag max-min
- C=Cn1ccnc1P(=S)(c1ccc(Cl)cc1)c1nccn1C=C
    -7, -14
- CN1CCC2(CC1)CN(C(=O)CCc1cc(Cl)no1)CCN2C
    8, 5
- NC(=S)Nc1ccc(F)cc1
    0, 2
- O=C1c2ccccc2-c2onc3ccc(NCCBr)c1c23
    1, -2
- COP1(=S)C2=C(N3CCCC3)CCCC2=NN1c1ccccc1 (stereo not given)
    2, 0
- Cc1cc(C(=O)OCC(=O)NC(=O)NC(C)(C)C)c(C)n1C1CC1
    14, 8
- CCC1(C)CC2(CCCN(CCO)C2)CCO1 (stereo not given)
    4, -1
- Cc1nc(CC(=O)N2C[C@H]3C[C@@H](C2)c2cccc(=O)n2C3)cs1
    6, -4
- O=C1NC(=O)C(=Cc2ccc(C=C3C(=O)NC(=O)NC3=O)cc2)C(=O)N1
    -10, -14
- O=C(CCCN1CCC2(CC1)C(=O)N(Cc1cccc(F)c1)CN2c1ccccc1)c1ccc(F)cc1
    -1, -5
- CC1(C)CN(C(=O)Cc2ccc(Cl)nc2)CCN1CC(F)(F)F
    3, -11
- CN(C)c1ccc2c(c1)N=C(c1ccc(Cl)cc1)OP2(=S)N1CCOCC1 (stereo not given)
    1&7, -1&8
- O=C(COc1ccc(Cl)cc1)N1CCN(C(c2ccc(F)cc2)c2ccc(F)cc2)CC1
    -5, 0
- CCN(CC)P(=S)(c1ccc(C=NNC(N)=O)o1)N(CC)CC
    -6, -10
- CN(C)c1ccc2c(c1)N=C(c1ccco1)OP2(=S)N1CCOCC1 (stereo not given)
    -3, -10
- O=C(O)COc1cc(Cl)c(Cl)cc1Cl
    -10, -15
- Nc1nc(CNC2CCC3(CCNCC3)CC2)cs1
    14, 8
- CC(C)=CC1C(C(=O)OCc2cccc(Oc3ccccc3)c2)C1(C)C (stereo not given)
    -6, -15
- Cc1ccnc(CC(C)N(C)Cc2cccc(Oc3ncccn3)c2)c1 (stereo not given)
    1, 0
- Cn1nc(-c2ccccc2)cc1[C@H]1CN2CC[C@H]1C[C@@H]2CNC(=O)COc1ccccc1
    -12, -17
- O=C1NC(=O)C(CCc2ccncc2)(c2ccccc2)C(=O)N1
    8, 7
- Cc1ccc(C)c(Cn2cccc(C(=O)Nc3ccc(F)c([N+](=O)[O-])c3)c2=O)c1
    13, 8
- COc1cc(C2NCc3ccc4c(c3-n3cccc32)OCO4)ccc1O (stereo not given)
    4, 1
- C[N+](C)(C)CC#CCN1CCCC1=O
    7, -44
- CN1CCC(C(=O)N2CCN3C(=O)CNC(=O)C3C2)(c2ccccc2)CC1 (stereo not given)
    4, 8
- CC(C)(O)C(Cl)(Cl)Cl
    -21, -35
- Cc1ncc(CO)c(CN2CCCC(C(=O)c3ccccn3)C2)c1O (stereo not given)
    5, 3
- CN1C(=CP(=S)(N2CCOCC2)N2CCOCC2)C(C)(C)c2ccccc21
    -3, 8
- CC(=O)[C@H]1CC[C@H]2[C@@H]3CC[C@H]4C[C@](C)(O)CC[C@]4(C)[C@H]3CC[C@]12C
    1, -23
- Cn1nc(-c2ccc3ccccc3c2)cc1[C@H]1CN2CC[C@H]1C[C@@H]2CNC(=O)Nc1cccc(C#N)c1
    -7, -15

Next section
Below each compound – NPYLR7 ag, NPYLR7 ag max-min
- Cc1cc(Cl)ccc1NC(=O)CN1CCCC1=O
    4, 3
- CC(Oc1ccccc1)C(=O)N1CCN(CCOC(c2ccccc2)c2ccccc2)CC1 (stereo not given)
    4, -1
- O=C(Cc1ccsc1)N1CCN(Cc2cccc(-c3noc(-c4cccc(Cl)c4)n3)c2)CC1
    3, -1
- COc1cccc([C@@H]2CN(C(=O)N3CCOCC3)[C@@H]3C4CCN(CC4)[C@@H]32)c1
    5, 4
- O=C(c1cccs1)C1CCCN(Cc2nc(-c3cnccn3)no2)C1 (stereo not given)
    11, 2
- Cc1cccc([C@H](C)c2cnc[nH]2)c1C
    1&-3, -7&-9
- Cc1noc(C)c1CN(C)C(=O)C1(c2ccccc2)CCNCC1
    3, -2
- N[C@H](CCCCCP(=O)(O)O)C(=O)O
    3, -6
- O=C(CN1C(=O)c2ccccc2C1=O)Nc1ccc(Cl)cc1C(=O)c1ccccc1
    -5, -11
- CCOC(=O)[C@H]1CN(S(=O)(=O)c2ccccc2)[C@]2(C)C(=O)N(CC(=O)N(C)C)c3ccccc3[C@H]12
    26, 36
- Cc1ccc(C)c(S(=O)(=O)N2CCN(CCOC(c3ccccc3)c3cccc(C(F)(F)F)c3)CC2)c1 (stereo not given)
    4, 1
- Cc1cccc2cc(CN3CCCN4CCC[C@H]4C3)c(=O)[nH]c12
    4, 1
- CCOC(Cn1cc(C(=O)Nc2ccc(C)cc2Cl)nn1)OCC
    3, 2
- COc1ccc(C(O)c2cc(OC)ccc2OP(=O)(N(C)C)N(C)C)cc1 (stereo not given)
    -7, -1
- Cc1cccc2nc(C(=O)Nc3ccc(C#N)c(Cl)c3)cn12
    14, 8
- CC(=O)CC1C2([N+](=O)[O-])CN(CCBr)CC1([N+](=O)[O-])c1ccccc1C2=O (stereo not given)
    8, 7
- Cc1cc(C)n(-c2ccc(CC(=O)N3CCN(C)CC3C)cc2)n1 (stereo not given)
    4, 3
- COc1ccc(-n2cc(C3=CCN(Cc4nc(C)cc(C)n4)CC3)cn2)cc1
    2, 0
- O=C(COc1ccc(F)cc1)N1CCN(Cc2cccc(-c3noc(-c4cccs4)n3)c2)CC1
    7, 3
- CCCC[N+]12C3CC(C(CC)[C@H]1O)[C@@H]1C(O)C4(C[C@@H]12)c1ccccc1N(C)C34 (stereo not given in full)
    3, 4
- C[C@H]1CNCCc2ccc(Cl)cc21
    6, -1
- Cc1c(C(=O)c2cccc3ccccc23)c2cccc3c2n1[C@H](CN1CCOCC1)CO3
    2, -4
- N#CC(C#N)=Cc1ccc(F)cc1
    2, 0
- CCOC(=O)C(=O)N1C[C@H](C(=O)OCC)[C@H]2c3ccccc3N(CCOC(C)=O)C(=O)[C@]21C
    0, 11

A different layout for some results above.
SMILES: CCCC[N+]12C3CC(C(CC)[C@H]1O)[C@@H]1C(O)C4(C[C@@H]12)c1ccccc1N(C)C34 (stereo not given in full)
  NPYLR7 ag = 3	NPYLR7 ag max-min = 4

SMILES: CC(=O)CC1C2([N+](=O)[O-])CN(CCBr)CC1([N+](=O)[O-])c1ccccc1C2=O (stereo not given)
  NPYLR7 ag = 8	NPYLR7 ag max-min = 7

SMILES: COc1ccc(C(O)c2cc(OC)ccc2OP(=O)(N(C)C)N(C)C)cc1 (stereo not given)
  NPYLR7 ag = -7	NPYLR7 ag max-min = -1

SMILES: Cc1ccc(C)c(S(=O)(=O)N2CCN(CCOC(c3ccccc3)c3cccc(C(F)(F)F)c3)CC2)c1 (stereo not given)
  NPYLR7 ag = 4	NPYLR7 ag max-min = 1
